Compound activity (PubChem BioAssay)
Vaccinia mCherry: vaccinia inhibition (mCherry reporter) | Vaccinia virus mCherry reporter infection, fluorescence; about a quarter of the inactives have no number | Potency, µM (highest dose often 36.5 µM), inactives show at the highest dose activity change, negative = inhibition, hits mostly inhibitors | actives 0.63% (n = 310,000); active = well fitted inhibition curve with a large enough effect; inconclusive = small, poorly fitted or top-dose-only effect; inactive = no such curve, though single readings can be large or run the other way; tested in A549 cells; also: nearly all actives have a fitted effect of over 35% in size; inactives centre near -10
Vaccinia Venus: inhibitors of vaccinia virus (Venus reporter) | Vaccinia virus Venus reporter expression, fluorescence | Potency, µM (doses to about 36.5 µM), inactives show top-dose activity change, negative = inhibition, hits mostly inhibitors | actives 0.46% (n = 330,000) | AID 720580; active means well fitted inhibition curve with a large enough effect; inconclusive means small, poorly fitted or top-dose-only effect; inactive means no such curve, though single readings can be large or run the other way; tested in A549 cells; also: nearly all actives have a fitted effect of over 30% in size; inactives centre near -10
The depositor's hits bear a star; i = inactive; u = inconclusive; x = not tested or not shown; & = joins results of further samples; [ ] = dose if it differs, or a comment. % is scaled to controls: 0 for no effect and ±100 for the full control effect; potency is read from the fitted curve at half-maximal effect.

SMILES | Vaccinia mCherry | Vaccinia Venus
CCn1cc(C(=O)OCC(=O)Nc2cc(C)cc(C)c2)c(=O)c2ccc(C)nc21 | -7.2% | -3.5%
CCN(CC)S(=O)(=O)c1ccc2c(c1)N(CC(=O)N1CCCC1)C(=O)CO2 | i | -10.1%
C#CCOCCOCCOCCNc1nc(N2CCOCC2)nc(N2CCN(C(=O)CCCCCCCCCCNC(=O)[C@@H]([C@H](C)CC)n3cc(CCCCCN)nn3)CC2)n1 | -28.2% | u
COC(=O)c1ccc(CN2[C@H](C(=O)OC)C[C@@]3(O)[C@H](O)[C@H](O)[C@H](O)C[C@@H]23)cc1 | i | -0.3%
COCCN1Cc2cccc(C(=O)Nc3cccnc3)c2C1=O | i | -5.3%
CCOC(=O)N1CCN(C(=O)/C(=C/c2ccc(F)cc2)NC(=O)c2ccccc2)CC1 | i | 0.8%
O=C(O)c1cc(-c2ccccc2Cl)n(-c2cccc(Cl)c2)n1 | i | -6.7%
Cc1ccc(S(=O)(=O)N2CCCCC2)cc1NC(=O)CSCC(=O)O | -4.3% | -7.0%
COc1ccc(N2CCN(C3=CC(=O)N(c4cccc(Cl)c4)C3=O)CC2)cc1 | -14.4% | -8.6%
N#CC1(NC(=O)COC(=O)c2cc([N+](=O)[O-])ccc2N2CCCC2)CCCCC1 | -3.2% | -5.6%
CC(C)CNS(=O)(=O)c1ccc(S(=O)(=O)NC2CCOC(C)(C)C2)cc1 (stereo not given) | -4.8% | -7.9%
Cc1cc(-c2ccccc2C(=O)O)on1 | -6.4% | 5.8%
NC(=O)CCN(C(=O)c1cccc(S(=O)(=O)N2CCc3ccccc32)c1)c1ccccc1 | -25.9% | -13.8%
Fc1ccc(NCc2nnc(SCc3ccccc3)o2)cc1 | -9.5% | -12.4%
Cc1nn(-c2ccccc2)c2c1C(c1c(C)[nH]c(C#N)c1C)C(C#N)=C(N)O2 (stereo not given) | i | -24.9%
CN(C)CCN=c1cc(-c2ccccc2)oc2ccc(Cl)cc12 | -13.8% | -8.2%
CC(=O)N1c2ccc(S(=O)(=O)NCCC(=O)N(C)C3CCCCC3)cc2CC1C (stereo not given) | 0.2%[7.34 µM] | 0.0%[7.34 µM]
COc1ccc2c(c1)CCc1cnc(-n3ncc(C(=O)NCc4cccnc4)c3C3CC3)nc1-2 | -5.5% | -17.5%
Clc1ccc(/C=C/c2ccnc3ccccc23)cc1 | u | u
COc1ccc(N=C2SC(CC(=O)Nc3ccccc3)C(=O)N2CCN2CCOCC2)cc1 (stereo not given) | i | -6.8%
COc1cccc(C(=O)c2cn(CC(=O)Nc3ccc4c(c3)OCCO4)c3nc(C)ccc3c2=O)c1 | -11.1% | -3.9%
CC1CCCCC1NC(=O)Cn1nnc(-c2ccc(Cl)cc2)n1 (stereo not given) | i | -11.1%
CCOC(=O)CC(NC(=O)Cn1nnc(-c2ccccc2F)n1)c1ccc(OC)cc1 (stereo not given) | -14.9% | -8.9%
Cc1ccc(CN(C(=O)c2ccc([N+](=O)[O-])cc2)c2ccccn2)cc1 | -11.3% | -2.3%
CCOC(=O)NC(=O)/C(C#N)=C/c1ccc(N(C)C)cc1 | i | 60.4%[activator]
CC(C)N(c1ccccc1)c1ccc(NC(=O)[C@@H]2O[C@H](CO)[C@@H](O)[C@H]2O)cc1 | -6.9% | -6.5%
O=C(CN1CCN(c2ccc(Cl)cc2[N+](=O)[O-])CC1)N1CCOCC1 | i | -8.4%
O=C(O)c1cc([N+](=O)[O-])cc([N+](=O)[O-])c1N1CCN(c2cccc(C(F)(F)F)c2)CC1 | i | -12.1%
CCc1ccccc1NC(=O)Cn1nnc(-c2nc(-c3ccc(C)cc3)no2)c1N | 1.9% | 1.7%
COc1cc2c(=O)n(CCC(=O)NCC3CCCO3)c(=O)n(CC(=O)Nc3ccc(C)c(C)c3)c2cc1OC (stereo not given) | -1.0%&-11.0% | 11.2%&-13.8%

Looked up by compound from the list above, 2 records:
SMILES | Vaccinia mCherry | Vaccinia Venus
CN(C)CCN=c1cc(-c2ccccc2)oc2ccc(Cl)cc12 | -13.8% | -8.2%
COc1cc2c(=O)n(CCC(=O)NCC3CCCO3)c(=O)n(CC(=O)Nc3ccc(C)c(C)c3)c2cc1OC (stereo not given) | -1.0%&-11.0% | 11.2%&-13.8%

The listing continues:
SMILES | Vaccinia mCherry | Vaccinia Venus
CCc1ccc(NC(=O)CSc2nc3ccccc3nc2Cc2ccccc2OC)cc1 | -19.1% | -15.4%
CCOc1ccc(/C=C/C(=O)c2cc(Br)ccc(=O)c2O)cc1 | -28.0% | -21.4%
Cc1cc(C)cc(NC(=O)CSc2nc(-c3ccccc3)c3cc(F)ccc3n2)c1 | -12.5% | -16.7%
O=C(COC(=O)c1ccccc1SCC(=O)N1CCCC1)Nc1ccccc1 | -12.1% | -6.3%
CN(CC(=O)Nc1ccccc1Cl)C(=O)COc1cccc2c1OC(C)(C)C2 | -14.3% | -5.9%
COc1ccc(N(C(=O)c2ccccc2)S(=O)(=O)c2ccc3c(c2)n(C)c(=O)n3C)cc1 | -16.8% | -17.7%
CC(=O)c1sc(NC(=O)CSC(C)C(=O)Nc2cc(C)on2)nc1-c1ccccc1 (stereo not given) | -17.6% | -7.0%
Cc1ccc(C(=O)N(C)Cc2ccccc2)cc1S(=O)(=O)N1CCOCC1 | -1.1% | -11.3%
CC(NC(=O)C1CCCN1S(=O)(=O)c1ccccc1)c1ccccc1 (stereo not given) | -6.4% | -7.2%
CC(C)Cc1cc(C(=O)NCc2cccnc2)no1 | i | -0.7%
O=C(CC1COc2ccccc2O1)NC1CCCCC1 (stereo not given) | x | -15.4%
COc1ccc(-c2onc(C)c2-c2ccc3c(c2)OCCO3)c(O)c1 | -13.3% | -6.6%
CCOC(=O)[C@]12CCCC=C1N(Cc1ccco1)C(=O)[C@H](CC(=O)NCC1CCCCC1)C2 | i | -8.4%
O=C(NNc1c(Cl)cccc1Cl)c1sc2ccccc2c1Cl | i | -22.4%
O=C(O)/C=C/C(=O)NNC(=O)c1ccc(Br)cc1 | -2.3% | -8.9%
COC(=O)c1sc(N/N=C/c2ccc(C(C)C)cc2)nc1C | u | 4.0%
COc1ccc(N2C(=O)[C@@H]3[C@H](C2=O)[C@H](C(C)=O)N2c4ccccc4C=C[C@@H]32)cc1 | i | 0.4%
CC(=O)Nc1ccc(S(=O)(=O)N2CCSC2c2ccccc2)cc1 (stereo not given) | -9.2% | -6.7%
Cc1ccc(C)c(S(=O)(=O)N2CCN(C(=O)C3CC3C)CC2)c1 (stereo not given) | -15.7% | -14.8%
CCc1ccc(S(=O)(=O)NCCc2csc(C)n2)s1 | -0.1% | 3.6%
Cn1c(N)c(C(c2ccccc2)c2c(N)n(C)c(=O)n(C)c2=O)c(=O)n(C)c1=O | -8.5% | -4.3%
CC/C(=N\NC(=O)c1ccc(N(C)C)cc1)c1ccccc1 | -10.7% | -3.3%
Cc1noc(C)c1COc1ccc(C(=O)Nc2cccnc2)cc1 | 1.2% | 6.3%
O=C(CSC(=S)N1CCOCC1)Nc1ncc2c(n1)CCCC2=O | -22.0%[7.34 µM] | 0.7%[7.34 µM]
COc1cccc(-c2noc(-c3ccoc3C)n2)c1 | -16.6% | -7.8%
CC1CC(C)CN(C(C)C(=O)Nc2cc(S(=O)(=O)N3CCCCC3)ccc2Cl)C1 (stereo not given) | i | -16.7%
CCOC(=O)c1ccc(Nc2cc(C)nc3nc(C)nn23)cc1 | -25.0% | -7.6%
CSc1ccc(/C=C/C(=O)OCC(=O)N2CCN(c3ccccc3)CC2)cc1 | -9.7% | -11.4%
Cc1ccc(C(=O)NCc2ccc(F)cc2)s1 | -21.7% | -18.3%
Cc1nn(C)cc1S(=O)(=O)Nc1cccc(Cl)c1 | i | 1.4%
CCC(CC)NC(=O)c1cccc(Oc2ccccc2)c1 | -25.2% | -16.7%
N/C(=N\OC(=O)CCN1C(=O)c2ccccc2C1=O)c1ccccn1 | i | -1.5%
COc1ccc(C(=O)NCC(c2ccc3c(c2)OCO3)N2CCOCC2)cc1 (stereo not given) | -2.4% | -9.1%
Cc1nnc(SCC(=O)N2CCOCC2)n1C | x | 4.7%
CCCOc1ccccc1C(=O)N1CCC(c2nc3ccccc3s2)CC1 | -13.5% | -1.7%
Cc1ccc(S(=O)(=O)c2nc(-c3ccccc3F)oc2NCc2ccccc2)cc1 | -22.9% | -5.6%
COc1ccc(Cc2nc(C(=O)Nc3ccc(OC)cc3)cs2)cc1 | u | -18.7%
O=C(Nc1ccc(Br)cc1Br)Nc1cccc2[nH]c([C@@H]3O[C@H](CO)[C@@H](O)[C@H](O)[C@H]3O)nc12 | 8.2% | 8.5%
C#CC[N+](C)(C)CCCCCCCCCCCC | 8.91µM* | 7.94µM*
COC(C[C@@H](O)C[C@@H](O)[C@@H](C)OCc1ccccc1)OC | -21.7% | -13.3%
O=C(Nc1cccc(-n2cnnn2)c1)C1CCCN(C(=O)Cc2cccc(Cl)c2)C1 (stereo not given) | -6.9% | -3.4%
CCN1CCN(c2ncc3c(n2)CCN(CC(C)C)C3)CC1 | -6.6% | -2.7%
CCc1cccc2c(C(=O)COC(=O)/C=C/c3ccccc3OC)c[nH]c12 | i | -22.8%
CC(Sc1nc(N)cc(=O)[nH]1)C(=O)NC1CCCCC1 (stereo not given) | x | -8.7%
CCCOc1ccc(F)cc1-c1cc(C(=O)Nc2ccc(F)c(Cl)c2)[nH]n1 | -24.9% | -20.0%
COc1ccc(CNC(=O)COC(=O)CCS(=O)(=O)c2ccc(C)cc2)cc1OC | -19.4% | -7.9%
CN(c1ccccc1)C(CNS(=O)(=O)c1ccccc1)c1ccccc1 (stereo not given) | -14.8% | -5.2%
CCOC(=O)C1=C(c2ccccc2)NC(=S)NC1c1cccc([N+](=O)[O-])c1 (stereo not given) | u | -18.2%
CCOc1ccc(Nc2ncnc3c2c(-c2ccccc2)cn3-c2cccc(C)c2)cc1 | -16.5% | -5.2%
COc1ccc(CNC(=O)C2Cc3cc(S(=O)(=O)N4CCCCCC4)ccc3N2C(C)=O)cc1 (stereo not given) | -1.7% | -4.8%
Cc1cc(Br)ccc1NC(=O)CCN1C(=O)c2ccncc2C1=O | -12.3% | -4.8%
Nc1ccc(N2CCN(c3ccccc3)CC2)c(F)c1 | -10.7% | -0.9%
CCN(CC(=O)NCc1ccc(Cl)cc1)C(=O)/C=C/c1ccc(Cl)c([N+](=O)[O-])c1 | -9.9% | -21.4%
CC(=O)Nc1ccc(NC(=O)C2CC(=O)N(Cc3ccccc3)C2)cc1 (stereo not given) | i | -9.5%
Cc1ccc(CNC(=O)CN2C(=O)NC(C)(c3ccc(Cl)cc3)C2=O)cc1 (stereo not given) | i | -16.9%
CN(c1ccc(C(=O)NCc2ccc3c(c2)OCO3)cc1)S(=O)(=O)c1ccccc1 | -23.4% | -5.8%
COc1cc2c(cc1OC)CN(CC(=O)Nc1ccc3c(c1)OCO3)CC2 | x | 17.1%
Cc1nc2ccc(S(=O)(=O)NC(C(=O)NCc3ccccc3Cl)C(C)C)cc2s1 (stereo not given) | -2.6% | 0.2%
Cc1cccc(NC(=O)c2ccccc2Br)n1 | i | -3.1%
Cc1ccc2c(C(=O)CN3CCOCC3)c(C)[nH]c2c1 | -3.2% | -11.9%

The results go on:
SMILES | Vaccinia mCherry | Vaccinia Venus
O=S(=O)(Cc1ccccc1Cl)Nc1ccccn1 | -21.7% | -4.2%
CCOC(=O)c1c(NC(=O)C(C)N2CCN(S(=O)(=O)c3cccs3)CC2)sc2c1CCC(C)C2 (stereo not given) | -12.8% | -2.7%
Cc1cc(S(=O)(=O)Nc2cc3c(cc2NCc2ccccc2)n(C)c(=O)n3C)ccc1F | -16.7% | -5.4%
CN1CCC(NC(=S)Nc2cccc([N+](=O)[O-])c2)CC1 | -10.2% | -9.7%
CN(C(=O)CN1C(=O)c2cc(Cl)c(Cl)cc2C1=O)C1CCS(=O)(=O)C1 (stereo not given) | -10.2% | -2.8%
COc1ccc(/C=C/c2nc(C#N)c(N3CCCCC3)o2)cc1OC | i | -24.6%
COc1ccc(NC(=O)C2CCCN(S(=O)(=O)c3c(C)n[nH]c3C)C2)cc1 (stereo not given) | -13.1% | -7.1%
CC(=O)Nc1ccc(Nc2nc3c(S(=O)(=O)c4cc(C)ccc4C)nnn3c3ccsc23)cc1 | 1.5% | -10.0%
O=C(O)c1ccc2nc3c(nc2c1)-c1ccccc1C3=O | -0.9% | 0.2%
Cc1cc2oc(C(=O)N(Cc3ccc(N(C)C)cc3)Cc3ccco3)c(C)c2cc1Cl | -12.0% | -9.2%
O=C(NC1CCCCC1)c1ccc(-c2ccccc2[N+](=O)[O-])o1 | -20.3% | -8.7%
CCCCCCCCCCCCCCCCOC[C@H](COP(=O)([O-])OCC[N+](C)(C)C)OC(C)=O | -10.3%[3.33 µM] | -7.7%[3.33 µM]

Sorted by SMILES length (low to high): part of the list above
SMILES | Vaccinia mCherry | Vaccinia Venus
COc1cccc(-c2noc(-c3ccoc3C)n2)c1 | -16.6% | -7.8%
Fc1ccc(NCc2nnc(SCc3ccccc3)o2)cc1 | -9.5% | -12.4%
Cc1ccc2c(C(=O)CN3CCOCC3)c(C)[nH]c2c1 | -3.2% | -11.9%
N/C(=N\OC(=O)CCN1C(=O)c2ccccc2C1=O)c1ccccn1 | i | -1.5%
COC(C[C@@H](O)C[C@@H](O)[C@@H](C)OCc1ccccc1)OC | -21.7% | -13.3%
CCOC(=O)N1CCN(C(=O)/C(=C/c2ccc(F)cc2)NC(=O)c2ccccc2)CC1 | i | 0.8%
O=C(O)c1cc([N+](=O)[O-])cc([N+](=O)[O-])c1N1CCN(c2cccc(C(F)(F)F)c2)CC1 | i | -12.1%

Outcome played no part in choosing rows; 0.87% or so of the library scored in one or more.
